High-throughput results (PubChem BioAssay)
Sfp PPTase inh = Sfp phosphopantetheinyl transferase inhibition; Q9F4F7; Biochemical Sfp PPTase activity, qHTS; Potency, µM, without a hit: max response, negative = inhibition, usual class: inhibitors; hit rate 3.5% among 310,000; AID 1490; active = well fitted inhibition curve with a large enough effect; inconclusive = small, poorly fitted or top-dose-only effect, or another doubt; inactive = no such curve, though single readings can be large or run the other way;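 also: the enzyme is Sfp with the accession as filed and its product quenches rhodamine fluorescence; potency is read from the fitted curve at half-maximal effect; 0% = enzyme reaction without inhibitor and -100% = no enzyme wells; top concentration of the series not given in the record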
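With Hepes-Na pH 7.6 buffer containing 10 mM MgCl2, Sfp (15 nM) modified BHQ-2-YbbR (12.5 uM) using rhodamine-CoA (5 uM). Two reads 30 minutes apart at 525/598 nm yielded each well's rate.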
gsp antag = gsp mutant antagonism; gsp-mutant cells, cAMP HTRF, 30 min; control for the full effect not named in the record; Potency, µM (titrated, usually from 76.9 µM), for inactives: top-dose activity change, negative = inhibition, usual class: inhibitors; hit rate 0.4% among 340,000; AID 624288; active = falling curve of any shape with a large fitted effect; inconclusive = falling curve, mostly with a smaller effect; inactive = flat or rising curve; cell line not stated here;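 also: intracellular cAMP measured with PDE inhibitor Ro 20-1724 present during compound exposure; potency is read from the fitted curve at half-maximal effect; % is scaled to controls: 0 for no effect and ±100 for the full control effect; nearly all actives have a fitted effect of over 65% in size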
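HTRF cAMP read-out (cAMP-d2 plus anti-cAMP antibody-K in lysis buffer, 30 min RT). Before lysis, cells are exposed to compounds with […] for 30 min at 37C in DPBS containing Ca/Mg, BSA and Tween 20.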
TRPV1 PAM = human TRPV1 potentiation; Q8NER1; TRPV1-expressing cells, Fluo-8 calcium influx, capsaicin EC20 potentiation; host cell line not named in the record; control for the full effect not named in the record; potentiation, % at 8.33 µM; hit rate 0.02% among 320,000; active means potentiation above 80%; inconclusive means 30% to 80%; inactive means below 30%; also: 0% is about no effect
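Fluo-8 calcium influx in TRPV1-expressing cells, kinetic read (ex 480/em 520 nm). Compound added and read 3 min for agonist activity, followed by capsaicin at EC20 final and 2 min further read for enhancement.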
gsp ag = gsp mutant agonism. gsp mutant cells, cAMP HTRF, 30 min; control for the full effect not named in the record. Potency, µM (highest dose often 76.9 µM), for the others: at the top dose activation (cAMP increase), actives largely listed as activators. hit rate 0.13% among 340,000; active = well fitted activation curve with a large enough effect; inconclusive = small, poorly fitted or top-dose-only effect, or another doubt; inactive = no such curve, though single readings can be large or run the other way; cell line not stated here;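 also: phosphodiesterase inhibitor Ro 20-1724 added with compounds to block cAMP breakdown; potency is read from the fitted curve at half-maximal effect; nearly all actives have a fitted effect of over 60% in size; about a fifth of the inactives were tested at one dose only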
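Cells stably selected in G418 were plated at 2000/well, grown 16-24 hr, then given compounds in DMSO with the PDE inhibitor […] (300 uM solution added) for 30 min at 37C; cAMP was read by HTRF.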
ClpP mod = qHTS Assay for Activators of ClpP | purified B. subtilis ClpP, FRET peptide cleavage, 20 min | Potency, µM (highest dose often 57.5 µM), without a hit: top-dose activity change, negative = active | hit rate 1.9% among 340,000; active = well fitted falling curve with a large enough effect; inconclusive = small, poorly fitted or top-dose-only effect; inactive = no such curve, though single readings can be large or run the other way; also: potency is read from the fitted curve at half-maximal effect; the source files actives as falling curves though it sought activators and does not explain the sign; nearly all actives have a fitted effect of over 65% in size; many hits overshoot -100%
Target sequence (P80244 whole entry, looked up): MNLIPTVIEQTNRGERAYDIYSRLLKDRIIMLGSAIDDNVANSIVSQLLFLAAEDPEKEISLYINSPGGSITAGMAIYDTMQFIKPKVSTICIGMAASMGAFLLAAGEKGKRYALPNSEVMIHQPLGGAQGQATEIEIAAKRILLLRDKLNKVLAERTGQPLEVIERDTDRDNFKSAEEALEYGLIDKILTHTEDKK
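ClpP 10 microg/mL final, pH 8 Tris/KCl buffer with BSA, glycerol, Tween-20; compound pinned in; FRET-FV substrate; RT 20 min; Ex320/Em430; ΔFRET vs ADEP 5.8 microM, DMSO, no enzyme.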
TRPML1 blocker = human mucolipin-1 channel inhibition; hit rate 0.02% among 390,000; TRPML1-inducible cells, Ca2+ dye fluorescence, FDSS; active compounds read low; inhibition of EC80 agonist-evoked calcium signal; Q9GZU1; activity change, negative = inhibition, % (concentration not given with the values); in the data active means activity change below about -50%; inconclusive means about -30% to -50%; inactive means above about -30%;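 also: stimulus is agonist 54-4 at its EC80 concentration; % is scaled to controls: 0 for no effect and ±100 for the full control effect; the text of the record puts the active cut at -80%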
Target sequence (Q9GZU1 whole entry, looked up): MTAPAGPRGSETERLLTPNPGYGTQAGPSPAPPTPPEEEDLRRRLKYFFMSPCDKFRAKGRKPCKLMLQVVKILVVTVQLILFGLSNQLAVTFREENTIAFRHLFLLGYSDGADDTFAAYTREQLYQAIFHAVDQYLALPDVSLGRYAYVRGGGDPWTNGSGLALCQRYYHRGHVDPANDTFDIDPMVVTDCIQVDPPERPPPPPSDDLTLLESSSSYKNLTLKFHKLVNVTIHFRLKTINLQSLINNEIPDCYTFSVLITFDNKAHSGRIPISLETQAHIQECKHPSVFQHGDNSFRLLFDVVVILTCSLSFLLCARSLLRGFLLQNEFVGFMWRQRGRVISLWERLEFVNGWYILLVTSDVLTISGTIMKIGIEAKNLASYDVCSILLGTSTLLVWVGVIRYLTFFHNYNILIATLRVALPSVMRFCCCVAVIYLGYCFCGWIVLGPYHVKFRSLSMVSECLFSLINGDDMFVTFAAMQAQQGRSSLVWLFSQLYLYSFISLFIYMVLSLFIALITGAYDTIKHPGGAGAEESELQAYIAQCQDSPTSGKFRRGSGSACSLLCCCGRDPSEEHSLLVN
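Tet-induced TRPML1-DL cells loaded with Ca8 no-wash calcium dye were read kinetically on FDSS. Compound addition was followed by EC80 agonist 54-4 (4 uM final); inhibition was read over 110 s.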
Menin-MLL FL inh = menin-MLL binding inhibition, fluorescein peptide. Fluorescence polarization, fluorescein-MLL peptide displacement from menin. FP activity change, % at 61.4 µM. 290,000 tested, under 10 active. AID 1766; inconclusive = falling polarisation curve, or a change in total fluorescence; inactive = total fluorescence flat and polarisation flat or rising; no compound was filed as active; the % refers to the polarisation; negative = inhibition;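 also: % of control where 0% means no effect; inhibitors lower the polarisation; unlabelled MLL peptide was the positive control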
* hit, by the source's call; u = inconclusive; x = no result given; [ ] = dose if it differs, or a comment.

SMILES | Sfp PPTase inh | gsp antag | TRPV1 PAM | gsp ag | ClpP mod | TRPML1 blocker | Menin-MLL FL inh
COC(=O)c1sc2ccccc2c1NC(=O)c1coc2ccccc2c1=O | 18% | 10% | 5 | 11% | 6.1% | -5 | -2.6
O=C(/C=C/c1ccccc1)Nc1ccc(S(=O)(=O)N2CCOCC2)cc1 | x | -33% | x | -34%[inhibitor] | 1.1% | -14 | x
Cn1c(C(=O)NN)cc2cc(OCc3ccccc3)ccc21 | x | 1% | x | -42%[inhibitor] | -14% | 34 | x
O=S(=O)(c1ccc(Cl)cc1)c1nc(-c2ccco2)oc1N1CCCCC1 | -4% | -37% | -11 | -20% | -3.1% | -9 | x
O=C(COC(=O)c1ccc(Br)o1)Nc1ccc2c(c1)OCCO2 | x | -14% | x | 3% | -2.8% | -6 | x
COc1ccccc1NC(=O)COC(=O)CNC(=O)C1CCCCC1 | x | 0% | x | 5% | x | -4 | x
Cc1ccc(S(=O)(=O)N2CCN(CC(=O)NC(C)c3ccccc3)CC2)cc1 (stereo not given) | x | -12% | -3 | 0%[15.4 µM] | 0.9% | 4 | x
CCc1ccccc1NC(=S)N(CCc1ccncc1)C(C)C | 7% | 9% | 5 | u | 0.2% | 9 | -4.2
COc1cccc(NC(=O)NNC(=O)CCc2ccc(O)c(O)c2)c1 | 56µM* | 2% | 10 | -3% | 2.5% | 0 | -2.3
CCCCOCCCNC(=O)/C=C/c1ccccc1Cl | x | 2% | x | -11% | -2.6% | 10 | x
COc1cccc(OC(=O)N2CCOCC2)c1 | -1% | -15% | 7 | 5%[15.4 µM] | x | -1 | -0.7
COc1ccc(CCC(=O)NC(C)C2CCCO2)cc1 (stereo not given) | 10% | 10% | 8 | -3%[15.4 µM] | 1.2% | 6 | -3.0
CCOC(=O)N1CCN(CC(=O)Nc2nccs2)CC1 | x | x | x | -33%[inhibitor] | -14% | 0 | x
O=C(O)C1CCC(=O)N1C(=O)OCc1ccccc1 (stereo not given) | 11% | -7% | -14 | 3% | -2.1% | -19 | 1.8
CCOc1ccccc1OCC(=O)Nc1ccc(OC)c(S(=O)(=O)N2CCCCC2)c1 | x | -25% | 6 | -1% | -1.0% | 9 | x
Cc1nc(C(C)NC(=O)c2cc(COc3ccc(F)c(F)c3)on2)cs1 (stereo not given) | 10% | -4% | 0 | 17% | -0.5% | 1 | x
O=C(CN1CCN(S(=O)(=O)c2ccc(Br)cc2)CC1)N/N=C/c1cccs1 | 9% | 13% | -3 | -4% | -1.2% | 11 | 4.6
CN(C)S(=O)(=O)c1cccc(NC(=O)COC(=O)CCSc2ccc(Cl)cc2)c1 | -1% | 1% | 4 | 6%[15.4 µM] | -1.1% | -9 | 1.0
CCN1CCN(CCCNC(=O)c2ccccc2NC(=O)C2=C(C)OCCS2)CC1 | 10% | 14% | u | 18% | -1.1% | 17 | x
COc1ccc(-n2nc(C(=O)NCC(=O)N3CCN(Cc4ccccc4)CC3)c3ccccc3c2=O)cc1OC | 10% | -14% | 29 | -12% | x | -3 | -0.2

Whole records, looked up by structure. Order of values: Sfp PPTase inh, gsp antag, TRPV1 PAM, gsp ag, ClpP mod, TRPML1 blocker, Menin-MLL FL inh
Cc1ccc(S(=O)(=O)N2CCN(CC(=O)NC(C)c3ccccc3)CC2)cc1 (stereo not given) as listed: x, -12%, -3, 0%[15.4 µM], 0.9%, 4, x
CCc1ccccc1NC(=S)N(CCc1ccncc1)C(C)C as listed: 7%, 9%, 5, u, 0.2%, 9, -4.2

Carrying on:
SMILES | Sfp PPTase inh | gsp antag | TRPV1 PAM | gsp ag | ClpP mod | TRPML1 blocker | Menin-MLL FL inh
COC(=O)C1=C(C)N(Cc2ccc(OC)cc2)C(=O)C1 | -15% | -3% | 1 | -2% | -5.5% | -18 | 0.1
COc1ccc(Cl)cc1NC(=O)C(C)Sc1n[nH]c(N)n1 (stereo not given) | 4% | -11% | -3 | 4% | 1.4% | 0 | -3.1
O=C(CS(=O)(=O)c1ccccc1)Nc1nc(-c2ccccc2)cs1 | -14% | -11% | 21 | u | 0.5% | 18 | 1.3
CCOc1ccccc1OCCCCCc1c(C)n[nH]c1C | 7% | u | u | 15% | -1.0% | 23 | 2.1
Cc1ccc(NC(=O)CCOc2ccccc2C)cc1F | -5% | x | -18 | -10%[15.4 µM] | x | -10 | 6.0
CCn1c(=O)c(C(=O)Nc2ncccc2O)c(O)c2ccccc21 | 16% | -7% | 10 | 19%[15.4 µM] | 0.0% | 15 | 1.3
COC(=O)c1c(NC(=O)c2cccs2)sc2c1CCC(C)C2 (stereo not given) | -1% | -8% | 1 | 20% | u | 11 | -1.0
COc1ccc(CNC(=O)[C@H](C)NC(=O)C2CCN(C(=O)[C@@H](N)Cc3ccccc3)CC2)cc1 | 3% | 6% | 9 | x | -5.5% | x | 0.8
CCCC(=O)N(Cc1cc2cc(OC)ccc2[nH]c1=O)c1ccc(OC)cc1 | x | x | x | -55%[inhibitor] | 4.6% | 7 | x
O=C(NCc1ccccc1)C1C2C=CC3(CN(Cc4cccnc4)C(=O)C13)O2 (stereo not given) | 4% | 13% | 2 | 10% | 0.4% | 14 | 5.5
CCCCc1nnc(NC(=O)CSCc2cc(=O)n3c(C)csc3n2)s1 | 2% | 11% | 2 | u | -19% | 10 | x
COc1ccc(S(=O)(=O)Nc2nncs2)cc1 | 7% | 1% | 3 | -21% | -3.4% | -3 | -1.8
CCc1c(C(=O)Nc2ccncc2)csc1C | 13% | -2% | -16 | -4% | -0.1% | 3 | 3.3
O=C(Nc1nnc(C2CC2)s1)C1Cc2ccccc2CN1C(=O)c1ccco1 (stereo not given) | 40µM* | -14% | 6 | u | -1.8% | 12 | u
CCOC(=O)N1CCC(NC(=O)c2ccc(NC(=O)C3CCCO3)cc2)CC1 (stereo not given) | 22% | 5% | 20 | -45%[inhibitor] | -0.7% | 4 | 2.1
COc1ccc(/C=C(\NC(=O)c2ccc([N+](=O)[O-])cc2)C(=O)N2CCOCC2)cc1 | 6% | 0% | -6 | -6% | x | 2 | 1.2
Cc1cccc(C(=O)OCC(=O)N(C)C(c2ccccc2)c2ccccc2)c1[N+](=O)[O-] | x | -16% | -2 | -13% | 0.9% | -3 | x
Cc1nn(Cc2nnc(SCC(=O)Nc3ccc(Cl)cc3)n2C)c(C)c1[N+](=O)[O-] | 4% | 0% | u | 3%[15.4 µM] | -0.7% | 16 | 1.7
Cc1cc(C(=O)CSc2nnc(-c3ccc(F)cc3)o2)c(C)n1CC1CCCO1 (stereo not given) | -22% | -18% | 9 | 3% | 1.3% | -8 | u
CC(C)c1ccc(N(CC(=O)N2CCOCC2)S(C)(=O)=O)cc1 | 1% | -12% | -7 | -1% | x | -19 | -2.0
O=C(O)c1ccc(CSc2nnc(-c3ccncc3)n2-c2ccc(Br)cc2)cc1 | 27% | -13% | -5 | 2%[15.4 µM] | x | 5 | 1.6
Cc1ccnc(NC(=O)CN2C(=O)NC(C)(c3ccc4ccccc4c3)C2=O)c1 (stereo not given) | x | -7% | -7 | -6% | -3.7% | -13 | x
O=C(CCCn1c(=O)c2sccc2n(CC(=O)OCc2ccccc2)c1=O)NCc1ccco1 | 5% | -17% | 2 | -29% | 0.7% | 40 | 2.4
O=C(N/C(=C/c1ccccc1)C(=O)N1CCCCC1)c1ccco1 | 14% | 0% | 3 | -4% | 1.7% | -14 | 2.5
CCn1ncc(NC(=S)NCCc2ccccc2)c1C(N)=O | -10% | 5% | -1 | u | x | 5 | 10
Cc1ccc(C)c(NC(=O)CCC(=O)N/N=C/c2ccc3c(c2)OCO3)c1 | -5% | -3% | -9 | 29%[15.4 µM] | x | 17 | 7.6
OCCC1CN(Cc2ccc(C(F)(F)F)cc2)CCN1Cc1ccccc1 (stereo not given) | 5% | 10% | -6 | 5% | x | -19 | 0.3
CC1CN(C(=O)c2ccccc2NS(=O)(=O)c2cccc([N+](=O)[O-])c2)CC(C)O1 (stereo not given) | 36%[activator] | -2% | -5 | -2%[15.4 µM] | x | -7 | 2.8
O=C(Nc1ccnn1C1CCN(C(=O)Cc2cccc(Cl)c2)CC1)C1CC1 | 0% | 5% | 4 | 5% | 0.8% | 8 | -1.7
Clc1nc(CN2CCCCC2)nc2sc3c(c12)CCC3 | -3% | -28% | -3 | 8%[15.4 µM] | -1.6% | -21 | -2.4
CCOC(=O)CC1=C(C(=O)OCC)C(c2ccc(C)o2)C(C#N)=C(N)O1 (stereo not given) | -9% | -3% | -2 | 3% | 2.4% | 8 | u
Oc1ccc2ccccc2c1CNc1ccc(Br)cn1 | 0% | -2% | 10 | -1% | -2.0% | -7 | 2.0
COc1ccc(CN2C[C@H]3CON(C)[C@H]3C[C@H]2c2ccc(-c3cccc(F)c3)cc2)cc1 | x | x | x | -70% | -1.2% | 72 | x
Cc1cccc(NC(=O)CN2C(=O)CCS(=O)(=O)c3ccccc32)c1C | 13% | 20% | 1 | u | -0.4% | -14 | 3.7
O=C(CN(C(=O)c1csnn1)c1ccc(F)cc1)NCc1ccc2c(c1)OCO2 | 11% | -7% | -3 | -9%[15.4 µM] | x | -2 | x
NC(=O)c1cc(S(=O)(=O)N2CCc3ccccc3C2)cs1 | 0% | 2% | 1 | u | x | -21 | -5.2
Cc1cccc(Oc2coc3cc(OC(=O)c4cccs4)ccc3c2=O)c1 | -6% | 10% | -9 | 21% | 0.9% | -15 | 10
COc1ccc(NC(=O)Nc2ccc(C(=O)N3CCOCC3)cc2)c(OC)c1 | -2% | -3% | 1 | 28% | x | -15 | 1.5
Cn1nc(C(=O)NNC(=O)C(CCC(N)=O)NS(=O)(=O)c2ccc(Cl)cc2)c2ccccc2c1=O (stereo not given) | x | 4% | -5 | u | -0.1% | 13 | x
O=S(=O)(c1cccs1)N1CCN(CC(O)COC2CCCc3ccccc32)CC1 (stereo not given) | -16% | 5% | 3 | 15% | 0.7% | 4 | -1.6
Cc1ccc(C(C)C)c(OCC#CCN2CCOCC2)c1 | u | -4% | -9 | 0% | 0.7% | 9 | 0.3
Cc1noc(C(=O)N2CC3(C)CC2CC(C)(C)C3)c1Cl (stereo not given) | 7% | 8% | x | 28% | 0.8% | 4 | 4.3
O=C(CSc1nc2cc(Cl)ccc2o1)Nc1ccc(N2CCOCC2)cc1 | 7% | -13% | -9 | 11% | 1.7% | 1 | -0.5
CC(NC(=O)c1ccco1)C(=O)N1CCN(S(=O)(=O)c2ccccc2C#N)CC1 (stereo not given) | x | 3% | u | -2% | -0.6% | 6 | x
